UCH37 inh – inhibitors of human UCH37 deubiquitinase, primary screen, biochemical, Ub-AMC cleavage, fluorescence; AID 588478, 2011; inhibition, % (no concentration beside the values); 330,000 tested, 0.33% active; Ubiquitin carboxyl-terminal hydrolase isozyme L5 (Homo sapiens), Q9Y5K5; purified proteasome/UCH37;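 active means mean of two replicates above 20%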;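 further: 0% = compound-free wells with enzyme and 100% = wells lacking proteasome; stock transfer was 100 nL into about 20 µL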
Target sequence (Q9Y5K5 whole entry, looked up): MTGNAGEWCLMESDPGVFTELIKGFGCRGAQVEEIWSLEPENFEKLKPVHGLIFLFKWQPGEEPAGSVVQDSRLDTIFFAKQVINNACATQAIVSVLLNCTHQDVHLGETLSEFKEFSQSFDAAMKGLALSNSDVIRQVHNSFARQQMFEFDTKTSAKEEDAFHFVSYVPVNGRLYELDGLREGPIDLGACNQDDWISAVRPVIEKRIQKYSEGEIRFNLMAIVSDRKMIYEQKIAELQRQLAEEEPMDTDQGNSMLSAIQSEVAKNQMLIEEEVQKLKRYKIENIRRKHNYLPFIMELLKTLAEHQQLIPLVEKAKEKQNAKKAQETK
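Schedule: 30 min plus 25 min, room temperature / Material: human UCH37 within purified proteasomes / Technique: AMC fluorescence intensity at 355/460 nm / Buffer or medium: pH 7.4 Tris-HCl (50 mM) with ovalbumin, ATP-MgCl2, DTT / Controls: wells without proteasome as full block, compound-free enzyme plus substrate as uninhibited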
E coli growth – E. coli growth inhibition, primary screen, OD600; Escherichia coli growth, 23 h; hits give low values; OD600 absorbance (test concentration not listed); 330,000 tested, 0.21% active; AID 1053175, 2014;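 active means OD600 absorbance below the run mean of sample wells minus 3.6 SD, in any replicate, cut at about 0.56 in these data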;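 further: stock transfer was 300 nL into about 60 µL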
FGF22 binding – binders of human FGF22 protein, primary screen, FGF22 synaptogenesis inhibitor project, biophysical, thermal shift, single point | calls only at 9.99 µM | AID 651658, 2012 | recombinant FGF22 thermal shift, SYPRO orange fluorescence; percent of sucrose octasulfate shift, DMSO zero | Fibroblast growth factor 22 (Homo sapiens), Q9HCT0 | 340,000 tested, 1.5% active;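 active means melting point raised past a set limit in the mean and every replicate; three in four hits are not shown here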
HNF4A DNA FP – change in binding of human HNF4A to DNA, primary screen, biochemical, fluorescence polarization, FITC-DNA. activity change, % at 10 µM. 360,000 tested, 0.3% active. AID 1224865, 2016. Hepatocyte nuclear factor 4-alpha (Homo sapiens), P41235. 1 h; in the data active means activity change above about 30%, passing the limit was not always enough;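 further: controls were the assay level and a saturating level of protein; the project sought stronger binding though the title names inhibitors; some compounds called inactive have numbers as strong as hits; positive values seem to mean higher polarization but the record does not say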
Target sequence (P41235 whole entry, looked up): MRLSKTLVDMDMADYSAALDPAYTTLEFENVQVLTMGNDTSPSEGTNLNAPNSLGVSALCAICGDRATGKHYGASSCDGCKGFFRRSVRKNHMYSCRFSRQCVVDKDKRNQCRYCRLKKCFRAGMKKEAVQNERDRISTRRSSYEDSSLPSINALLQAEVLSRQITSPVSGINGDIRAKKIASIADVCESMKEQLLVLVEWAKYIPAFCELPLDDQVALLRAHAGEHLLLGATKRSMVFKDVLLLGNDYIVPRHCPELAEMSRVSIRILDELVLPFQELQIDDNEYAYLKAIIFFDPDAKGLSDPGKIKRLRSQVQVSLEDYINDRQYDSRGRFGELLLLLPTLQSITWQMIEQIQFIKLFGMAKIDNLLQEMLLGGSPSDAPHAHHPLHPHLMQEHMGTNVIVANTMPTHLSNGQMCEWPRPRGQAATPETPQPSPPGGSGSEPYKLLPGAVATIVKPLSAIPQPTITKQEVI
Ecoli rRNA inh – reduced GFP signal of wild-type E. coli, primary screen, bacterial rRNA inhibitor project, GFP/RFP fluorescence, OD600, single point. E. coli WT GFP vs humanized-ribosome RFP mutants, 24 h; hits give low values; DMSO median 0, no signal -100. GFP signal change (wild-type ribosome), % (test concentration not listed). 350,000 tested, 1.6% active. AID 720706, 2013;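 active means significant combined selectivity score with lowered wild-type GFP, culture density cut under 30%, mutant RFP and density less affected; inactive means any of these conditions unmet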; further: one replicate is shown; some compounds called inactive have numbers as strong as hits
Beta2AR agonist – beta2AR agonists driving receptor internalization, primary screen, cell-based, FAP fluorogen, flow cytometry. Beta-2 adrenergic receptor (Homo sapiens), P07550. Am2.2-beta2AR cells; reference of the scale not given here. response, % (concentration not given with the values). 340,000 tested, 0.43% active;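 active means response above a set limit, near 3 SD of response in nonfluorescent compounds, cut at about 42% in these data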;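 further: stock transfer was 100 nL into about 11 µL; a reference agonist was the positive control; negative values mostly stem from fluorescent compounds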
ALR H2O2 inh – inhibitors of human ALR sulfhydryl oxidase, primary screen, biochemical, H2O2 detection, HRP-luminol luminescence, single point. FAD-linked sulfhydryl oxidase ALR (Homo sapiens), P55789. purified ALR, DTT oxidation. inhibition, % (concentration not given with the values). 290,000 tested, 3.8% active. AID 485317, 2010;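 active means mean and each replicate at 75% or more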;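 further: stock transfer was 7.5 nL into about 7.5 µL; 0% = neutral wells and 100% = wells with inactivated enzyme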
Target sequence (P55789 whole entry, looked up): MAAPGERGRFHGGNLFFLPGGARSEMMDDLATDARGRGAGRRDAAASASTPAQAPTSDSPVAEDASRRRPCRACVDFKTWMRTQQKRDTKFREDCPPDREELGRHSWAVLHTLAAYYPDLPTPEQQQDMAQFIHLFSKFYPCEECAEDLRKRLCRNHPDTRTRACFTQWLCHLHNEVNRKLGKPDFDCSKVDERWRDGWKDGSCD
Ecoli rRNA inh OD600 – second read-out of Ecoli rRNA inh, no call of its own (marks repeat the call); OD600 change, %; measured here: OD600 growth;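 optical density of the mix in the first replicate; 0 = DMSO median and -100 = no signal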
Ecoli rRNA inh RFP – also measured in Ecoli rRNA inh; calls as there; RFP signal change, %; measured here: RFP humanized mutant strains;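 first replicate; 0 = DMSO median and -100 = no signal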
Starred values were filed as active, the others as inactive. This is a subset (hit frequency here may not be typical).

What do the screens show for `O=c1c(NCCc2ccc(Cl)cc2)c(-c2ccccc2)c1=O`?
UCH37 inh: 5.4; E coli growth: 0.69; FGF22 binding: inactive; HNF4A DNA FP: 7.7; Ecoli rRNA inh: 8; Beta2AR agonist: -3; ALR H2O2 inh: 1; Ecoli rRNA inh OD600: 3; Ecoli rRNA inh RFP: 0.8

How did COc1ccc(CCNC(=O)CSc2ccccn2)cc1 do in these assays?
UCH37 inh: -2.2; E coli growth: 0.72; HNF4A DNA FP: -0.5; Ecoli rRNA inh: -1; Beta2AR agonist: 4; ALR H2O2 inh: -3; Ecoli rRNA inh OD600: -4; Ecoli rRNA inh RFP: -0.1

Results for CCCOc1ccccc1NC(=O)Nc1ccccc1Cl ?
UCH37 inh: 1.1; E coli growth: 0.73; FGF22 binding: inactive; HNF4A DNA FP: -0.6; Ecoli rRNA inh: -7; Beta2AR agonist: 11; ALR H2O2 inh: -25; Ecoli rRNA inh OD600: -7; Ecoli rRNA inh RFP: -1.5

How did COc1ccc(CNC(=O)C2CCCN(S(=O)(=O)c3c(C)n[nH]c3C)C2)cc1 (stereo unspecified) do in these assays?
UCH37 inh: 0.5; E coli growth: 0.61; HNF4A DNA FP: 0.4; Beta2AR agonist: 6; ALR H2O2 inh: -6

What do the screens show for `O=C1NCCOC(=O)[C@@H](Cc2ccc(F)cc2)CC/C=C/C[C@@H]1CC(=O)N(CCO)Cc1ccccc1`?
UCH37 inh: 0.5; FGF22 binding: inactive; HNF4A DNA FP: 1.6; Ecoli rRNA inh: -9; Beta2AR agonist: -8; ALR H2O2 inh: 0; Ecoli rRNA inh OD600: -18; Ecoli rRNA inh RFP: 11

What do the screens show for `Fc1cccc(NC(=S)NCc2ccccn2)c1`?
UCH37 inh: 1.4; E coli growth: 0.63; FGF22 binding: inactive; HNF4A DNA FP: 4.3; Ecoli rRNA inh: 8; Beta2AR agonist: -1; ALR H2O2 inh: 1; Ecoli rRNA inh OD600: 10; Ecoli rRNA inh RFP: 2.9

Results for COc1ccc(C(=O)OCC(=O)NCC2CCCCC2)c(OC)c1 ?
UCH37 inh: 1.1; E coli growth: 0.7; HNF4A DNA FP: 4.1; Ecoli rRNA inh: -11; Beta2AR agonist: -9; Ecoli rRNA inh OD600: -14; Ecoli rRNA inh RFP: 2.9

What do the screens show for `CCOC(=O)c1sc(=NC(=O)COc2ccccc2)n(C)c1C`?
UCH37 inh: -0.1; E coli growth: 0.67; FGF22 binding: inactive; HNF4A DNA FP: -1.4; Ecoli rRNA inh: 14; Beta2AR agonist: 0; ALR H2O2 inh: 0; Ecoli rRNA inh OD600: 0; Ecoli rRNA inh RFP: -1.4

How did C=CCNC(=O)/C(=C\c1cccc([N+](=O)[O-])c1)NC(=O)c1ccccc1 do in these assays?
UCH37 inh: 2.6; E coli growth: 0.68; FGF22 binding: inactive; HNF4A DNA FP: 3.4; Ecoli rRNA inh: 11; Beta2AR agonist: 14; ALR H2O2 inh: -6; Ecoli rRNA inh OD600: 10; Ecoli rRNA inh RFP: -1.6

Results for CCN(CC)c1ccc(/C=N/N2CCN(c3ccccc3OC)CC2)cc1 ?
FGF22 binding: inactive; HNF4A DNA FP: -0.1; Ecoli rRNA inh: -5; Beta2AR agonist: 12; ALR H2O2 inh: 99*; Ecoli rRNA inh OD600: -7; Ecoli rRNA inh RFP: -0.2

What do the screens show for `Cc1ccc(NC(=O)C(C)SCc2nc3sc4c(c3c(=O)[nH]2)CCCC4)nc1` (stereo unspecified)?
UCH37 inh: -9.2; E coli growth: 0.74; FGF22 binding: inactive; HNF4A DNA FP: 14; Ecoli rRNA inh: 15; Beta2AR agonist: 7; ALR H2O2 inh: -10; Ecoli rRNA inh OD600: 8; Ecoli rRNA inh RFP: 4.9

How did Oc1cc(O)cc(C=Cc2ccc(O)c(O)c2)c1 do in these assays?
E coli growth: 0.61; FGF22 binding: active; Ecoli rRNA inh: -29*; Ecoli rRNA inh OD600: -29*; Ecoli rRNA inh RFP: -2.3*

What do the screens show for `CC1CCCC(NC(=O)CN2C(=O)NC(c3ccccc3)(c3ccccc3)C2=O)C1C` (stereo unspecified)?
UCH37 inh: 1.5; E coli growth: 0.69; FGF22 binding: inactive; HNF4A DNA FP: -3.6; Ecoli rRNA inh: -19; Beta2AR agonist: -3; Ecoli rRNA inh OD600: -23; Ecoli rRNA inh RFP: -7.9

Results for CCCn1c2ccccc2c2cnn(CC(=O)NC3CCN(Cc4ccccc4)CC3)c(=O)c21 ?
UCH37 inh: -6.0; E coli growth: 0.68; FGF22 binding: inactive; HNF4A DNA FP: -3.0; Ecoli rRNA inh: 7; Beta2AR agonist: 3; ALR H2O2 inh: 5; Ecoli rRNA inh OD600: 0; Ecoli rRNA inh RFP: 4.7

Results for Cc1c(Cl)cccc1NC(=O)NCc1ccc(F)cc1 ?
UCH37 inh: 2.8; E coli growth: 0.71; FGF22 binding: inactive; HNF4A DNA FP: -0.5; Ecoli rRNA inh: 0; Beta2AR agonist: -9; ALR H2O2 inh: 0; Ecoli rRNA inh OD600: 5; Ecoli rRNA inh RFP: -0.9

What do the screens show for `COc1ccc(/C=C(/NC(=O)c2ccc(Br)o2)C(=O)Nc2cccc(C(=O)O)c2)cc1`?
FGF22 binding: inactive; HNF4A DNA FP: -4.6; Ecoli rRNA inh: 2; Ecoli rRNA inh OD600: 1; Ecoli rRNA inh RFP: -1.4

What do the screens show for `CC(C)N1CCC2(CC1)Oc1ccc(Br)cc1C1CC(c3cccnc3)=NN12` (stereo unspecified)?
UCH37 inh: 2.5; E coli growth: 0.65; FGF22 binding: inactive; HNF4A DNA FP: -1.9; Ecoli rRNA inh: 3; Beta2AR agonist: 6; ALR H2O2 inh: 16; Ecoli rRNA inh OD600: 0; Ecoli rRNA inh RFP: 43

How did COc1cc(/C=C2/N=C(c3ccccc3F)OC2=O)cc(Cl)c1OS(C)(=O)=O do in these assays?
UCH37 inh: -0.3; E coli growth: 0.7; FGF22 binding: inactive; HNF4A DNA FP: -1.7; Ecoli rRNA inh: 13; Beta2AR agonist: 5; ALR H2O2 inh: -3; Ecoli rRNA inh OD600: 4; Ecoli rRNA inh RFP: 1.6

What do the screens show for `CCOC(=O)c1sc2nc(C)nc(Nc3ccccc3)c2c1C`?
UCH37 inh: -37; E coli growth: 0.71; FGF22 binding: inactive; HNF4A DNA FP: 2.6; Ecoli rRNA inh: 12; Beta2AR agonist: -8; ALR H2O2 inh: -2; Ecoli rRNA inh OD600: 12; Ecoli rRNA inh RFP: 0.4

Results for CN(c1ccccc1)S(=O)(=O)c1ccc(C(=O)NCC2CCCO2)cc1 (stereo unspecified) ?
UCH37 inh: 0.2; E coli growth: 0.74; HNF4A DNA FP: -0.5; Beta2AR agonist: -6; ALR H2O2 inh: -10

How did COC(=O)C[C@@H]1CC[C@@H](NS(=O)(=O)c2ccc(F)cc2)[C@@H](CO)O1 do in these assays?
FGF22 binding: inactive; HNF4A DNA FP: 0.3; Ecoli rRNA inh: 2; Ecoli rRNA inh OD600: 3; Ecoli rRNA inh RFP: -1.2

What do the screens show for `Cn1c(SCc2cccc(Br)c2)nnc1-c1ccncc1`?
UCH37 inh: 1.0; E coli growth: 0.66; FGF22 binding: inactive; HNF4A DNA FP: 1.9; Ecoli rRNA inh: 3; Beta2AR agonist: 9; ALR H2O2 inh: -6; Ecoli rRNA inh OD600: 3; Ecoli rRNA inh RFP: 0.1

What do the screens show for `C/C(=N\NC(=O)CSc1nc(C)cc(C)n1)c1cccs1`?
FGF22 binding: inactive; HNF4A DNA FP: 0.2; Ecoli rRNA inh: -12; Beta2AR agonist: 0; ALR H2O2 inh: -1; Ecoli rRNA inh OD600: -9; Ecoli rRNA inh RFP: -1.2

Results for O=C(NCCN1CCCCCC1)c1ccc(CS(=O)(=O)c2ccc(Br)cc2)o1 ?
UCH37 inh: 5.4; E coli growth: 0.77; HNF4A DNA FP: 6.6; Beta2AR agonist: -4; ALR H2O2 inh: 18

How did O=C(CSc1nc2c(sc3ccccc32)c(=O)n1Cc1ccco1)NCC1CCCO1 (stereo unspecified) do in these assays?
UCH37 inh: -9.2; E coli growth: 0.74; HNF4A DNA FP: -2.0; Beta2AR agonist: -4; ALR H2O2 inh: 9

How did Cc1ccc(-c2csc3ncnc(N4CCc5ccccc5C4)c23)cc1 do in these assays?
UCH37 inh: 3.5; E coli growth: 0.69; HNF4A DNA FP: 2.8; Beta2AR agonist: 4; ALR H2O2 inh: -14

How did O=C(COC(=O)C1CC(O)CN1S(=O)(=O)c1ccc(Cl)cc1)c1ccccc1 (stereo unspecified) do in these assays?
UCH37 inh: 6.6; E coli growth: 0.67; FGF22 binding: inactive; HNF4A DNA FP: 3.8; Ecoli rRNA inh: 1; Beta2AR agonist: -3; ALR H2O2 inh: 25; Ecoli rRNA inh OD600: 5; Ecoli rRNA inh RFP: 3.2

How did COc1cc(C(C2C(=O)CC(C)(C)CC2=O)C2C(=O)CC(C)(C)CC2=O)ccc1O do in these assays?
UCH37 inh: 2.2; E coli growth: 0.65; FGF22 binding: inactive; HNF4A DNA FP: 0.2; Ecoli rRNA inh: 18; Beta2AR agonist: 0; ALR H2O2 inh: 29; Ecoli rRNA inh OD600: 10; Ecoli rRNA inh RFP: 1.2

Results for COc1cccc(N2CCN(CC(=O)NCc3cccs3)CC2)c1 ?
UCH37 inh: 0.4; E coli growth: 0.69; HNF4A DNA FP: 0.1; Beta2AR agonist: 0; ALR H2O2 inh: 99*

Results for Cc1nc(SCC(=O)N2CCNC2=O)c2ccccc2n1 ?
UCH37 inh: 5.6; E coli growth: 0.64; FGF22 binding: inactive; HNF4A DNA FP: 0.8; Ecoli rRNA inh: -4; Beta2AR agonist: 7; ALR H2O2 inh: 0; Ecoli rRNA inh OD600: 5; Ecoli rRNA inh RFP: -2.3

Results for CCS(=O)(=O)Nc1ccc(C(=O)CC2(O)C(=O)Nc3ccc(Br)cc32)cc1 (stereo unspecified) ?
UCH37 inh: 4.6; E coli growth: 0.7; HNF4A DNA FP: -4.4; Beta2AR agonist: 4; ALR H2O2 inh: -5

How did COc1ccccc1N(CC(=O)NCc1ccco1)S(C)(=O)=O do in these assays?
UCH37 inh: 1.0; E coli growth: 0.66; FGF22 binding: inactive; HNF4A DNA FP: -2.3; Ecoli rRNA inh: 11; Beta2AR agonist: 3; ALR H2O2 inh: 0; Ecoli rRNA inh OD600: 10; Ecoli rRNA inh RFP: -0.8

What do the screens show for `COc1ccc(N2CCN(C(CNC(=O)C(=O)NCc3cccnc3)c3ccco3)CC2)cc1` (stereo unspecified)?
UCH37 inh: 3.8; E coli growth: 0.71; FGF22 binding: inactive; HNF4A DNA FP: -3.0; Ecoli rRNA inh: -3; Beta2AR agonist: 3; ALR H2O2 inh: 72; Ecoli rRNA inh OD600: 1; Ecoli rRNA inh RFP: -3.4

Compound activity from PubChem.
